2A firefly: FMDV 2A StopGo reporter, firefly signal; AID 1745856; HEK cells with a luciferase reporter of 2A StopGo recoding; Potency, µM (titrated, usually from 57.5 µM), for inactives: top-dose signal change, negative = less light; hit rate 0.23% among 120,000; active = well fitted falling curve with a large enough effect; inconclusive = small, poorly fitted or top-dose-only effect; inactive = no such curve, though single readings can be large or run the other way; note: nearly all actives have a fitted effect of over 60% in size; overnight with compound
StopGo RLuc: lowers the Renilla signal of an FMDV 2A StopGo reporter; HEK cells with a luciferase reporter of 2A StopGo recoding; Potency, µM (top dose mostly 57.5 µM), inactives show top-dose signal change, negative = less light; hit rate 0.32% among 120,000; AID 1745857; active means well fitted falling curve with a large enough effect; inconclusive means small, poorly fitted or top-dose-only effect; inactive means no such curve, though single readings can be large or run the other way; note: nearly all actives have a fitted effect of over 55% in size; overnight with compound
Numbers without * were called inactive; ? = inconclusive; & = joins results of further samples; [ ] = another dose, or the depositor's remark. % is set by controls: 0 for no effect and ±100 for the full control effect; potency is the fitted concentration of half-maximal effect. These rows are one share of the data; the hit share may differ from the screen's.

SMILES | 2A firefly | StopGo RLuc
Cc1ccc(-c2nnc(SCC(=O)N3CCCCCC3)n2N)cc1 | 17% | 7%
Cc1cc(C(=O)OCC(=O)Nc2cccc(S(N)(=O)=O)c2)c2ccccc2n1 | 5% | 2%
CCOC(=O)CC(NC(=O)CCc1c(C)nc2ncnn2c1C)c1ccc(C)cc1 (stereo not given) | -23% | -8%
Cc1ccc(NC(=O)COC(=O)c2cccc(O)c2)c(Cl)c1 | 219%[activator] | 11%
Cc1ccc(CNC(=O)c2nc(SCc3ccccc3F)ncc2Cl)cc1 | -16% | -8%
CC(C)C(=O)Nc1ccc(F)cc1F | 1% | -3%
Cc1nc(N2CCNCC2)c(C#N)c2c1CCCC2 | -9% | 7%
CCn1c(COc2ccc(Cl)cc2Cl)nc2ccccc21 | 76%[activator] | -10%
COc1ccc(-c2n[nH]c3c2C(c2ccccn2)N(C)C3=O)cc1 (stereo not given) | -2% | -1%
Cc1ccc(Cn2c(N3CCN(C/C=C/c4ccccc4)CC3)nc3c2c(=O)[nH]c(=O)n3C)cc1 | -13% | -14%
Cc1cc(Cl)c(NC(=O)c2cccc(NC(=O)C(C)(C)C)c2)c2cccnc12 | -9% | 15%
O=C(O)C(Cc1c[nH]c2ccccc12)NCc1ccccc1F (stereo not given) | -5% | -13%
Cc1ccc2oc3c(c(=O)c2c1)C(c1ccc([N+](=O)[O-])cc1)N(CCCN1CCOCC1)C3=O (stereo not given) | 33%[activator] | 10%
COc1ccc(/C=C(\C#N)C(=O)N2CCOCC2)cc1 | 175%[activator] | 15%
O=C(Cn1ccc(=O)[nH]c1=O)Nc1cccc2cccnc12 | 1% | -12%
Cn1c(SCc2nc(N)nc(Nc3ccccc3)n2)nnc1C1CC1 | 0% | 7%
Cc1cccc(C(=O)Nc2cccc3cccnc23)c1 | 191%[activator] | 19%
CC(=O)Oc1ccc2c(c1)O/C(=C\c1cccs1)C2=O | 0% | 10%
CCCN1CCN(CCNC(=O)Nc2ccccc2OCC)CC1 | -13% | -14%
Cc1cccc(-n2c(=O)c3c(c4cc(C)ccc4n3C)n(CC(=O)Nc3ccccc3C(F)(F)F)c2=O)c1 | -15% | -9%
CC(O)CNc1nc2c(c(=O)n(C)c(=O)n2C)n1Cc1cccc(F)c1 (stereo not given) | ? | ?
CCCCn1c2ccc(F)cc2c2n[nH]c(=S)nc21 | 14% | 13%
CC(C)c1ccc(/C=C/C(=O)NC2CC2)cc1 | 167%[activator] | 12%
O=C(NNC(=O)C1CCCCC1)c1cc(F)cc(F)c1 | 0% | 3%
S=c1[nH]c(-c2ccccc2)c(-c2ccccc2)[nH]1 | -9% | -12%
COc1ccc(Cn2c(SCc3ccc(C(=O)NC4CCCCC4)cc3)nc3cccnc32)cc1 | -9% | 11%
O=S(=O)(Nc1ccc2c(c1)CCC2)c1ccccc1Cl | 27% | 270%[activator]
Cc1noc2ncnc(N3CCCC(C(=O)Nc4cc(F)ccc4F)C3)c12 (stereo not given) | ? | ?
Cc1c(C(=O)N(Cc2ccc(N(C)C)cc2)CC2CCCO2)oc2ccccc12 (stereo not given) | -10% | 75%[activator]
O=C(CSc1n[nH]c(-c2cc(Br)ccc2O)n1)N1CCCC1 | 113%[activator] | 12%
COc1ccc(CCNc2ncnc3c2cnn3-c2ccc(F)cc2)cc1 | 32%[activator] | -6%
C1CNC(CN2CCOCC2)C1 (stereo not given) | 4% | -6%
C#CCNC(=O)N1CCN(c2ccc(F)cc2)CC1 | 13% | 9%
COc1cccc(C(=O)NC(c2ccc(Cl)cc2)c2cc(Cl)c3cccnc3c2O)c1 (stereo not given) | 3% | 17%
COc1ccc(OC)c(NC(=O)Cc2c(C)c3c(O)cc(C)cc3oc2=O)c1 | -7% | 8%
CN(CC(=O)Nc1cccc(F)c1)C(=O)c1nn(Cc2ccccc2)c(=O)c2ccccc12 | 17% | 96%[activator]
Cc1ccc(/C=N/NC(=O)Cc2cccc3ccccc23)s1 | 160%[activator] | 136%[activator]
CC(O)CNS(=O)(=O)c1cccc(C(=O)O)c1 (stereo not given) | -9% | -7%
COc1cccc(CNC(=O)c2cc3c(=O)n(Cc4cccnc4)ccc3nc2C)c1 | -3% | -2%
CCOc1ccc(CNC(=O)CN2C(=O)CCn3nc(-c4cn(C)c5ccccc45)cc32)cc1OC | -8% | -17%
O=C1CCCC2=C1C(c1ccc(Cl)c(Cl)c1)n1nnnc1N2 (stereo not given) | 5% | 1%
CC(=O)Nc1cn(-c2ccc(C(=O)Nc3ccccc3)cc2)cn1 | 67%[activator] | -7%
COc1ccc(-c2nc3cc(NC(=O)c4ccc(C)c([N+](=O)[O-])c4)ccc3o2)cc1OC | 7% | 19%
CC(C(=O)NC1CCCCC1)N(C)CC(=O)Nc1ccc(Cl)c(C(F)(F)F)c1 (stereo not given) | ? | ?
CC(Sc1nc(C(F)(F)F)nc2ccccc12)C(=O)N(C)c1ccccc1 (stereo not given) | 6% | -5%

Compounds listed so far that contain an aryl methoxy group:
SMILES | 2A firefly | StopGo RLuc
COc1ccc(-c2n[nH]c3c2C(c2ccccn2)N(C)C3=O)cc1 (stereo not given) | -2% | -1%
COc1ccc(/C=C(\C#N)C(=O)N2CCOCC2)cc1 | 175%[activator] | 15%
COc1ccc(Cn2c(SCc3ccc(C(=O)NC4CCCCC4)cc3)nc3cccnc32)cc1 | -9% | 11%
COc1ccc(CCNc2ncnc3c2cnn3-c2ccc(F)cc2)cc1 | 32%[activator] | -6%
COc1cccc(C(=O)NC(c2ccc(Cl)cc2)c2cc(Cl)c3cccnc3c2O)c1 (stereo not given) | 3% | 17%
COc1ccc(OC)c(NC(=O)Cc2c(C)c3c(O)cc(C)cc3oc2=O)c1 | -7% | 8%
COc1cccc(CNC(=O)c2cc3c(=O)n(Cc4cccnc4)ccc3nc2C)c1 | -3% | -2%
CCOc1ccc(CNC(=O)CN2C(=O)CCn3nc(-c4cn(C)c5ccccc45)cc32)cc1OC | -8% | -17%
COc1ccc(-c2nc3cc(NC(=O)c4ccc(C)c([N+](=O)[O-])c4)ccc3o2)cc1OC | 7% | 19%

The listing continues.
SMILES | 2A firefly | StopGo RLuc
COc1ccc(NC(=O)c2sc3nc[nH]c(=O)c3c2C)cc1Cl | 35% | -12%
COc1cc(/C=C(\C#N)c2nc3ccc(C)cc3[nH]2)ccc1OCc1ccc(C)cc1 | 94%&152%[activator] | -6%&4%
Cc1cccc(NC(=S)Nc2ccc(S(=O)(=O)Nc3ccccc3)cc2)c1 | 0% | 149%[activator]
N#CC1(NC(=O)CNc2cccc(Cl)c2F)CCCC1 | 5% | 4%
CCOc1sc2nc(C)n(CC(=O)Nc3cccc(C)c3)c(=O)c2c1C | 0% | -16%
S=C(N/N=C1/CC2CC=CC12)NC1CCCCC1 (stereo not given) | 0% | 138%[activator]
COc1cccc(Nc2nc3ccccc3nc2-n2nc(C)cc2C)c1 | 2% | 8%
CC(C)c1ccc(NC(=O)c2cc3ncccn3n2)cc1 | 162%[activator] | -4%
CCCCN(C)C(=O)CN1C(=O)c2cccnc2Oc2ccc(Cl)cc21 | 16% | 24%
O=C(CSc1nnc2c(Cl)cc(C(F)(F)F)cn12)c1ccc(Br)cc1 | -7% | -1%
CC(OC(=O)c1ccccc1NS(=O)(=O)c1ccc(F)cc1)C(=O)N1CCCc2ccccc21 (stereo not given) | -13% | -12%
COc1ccc(OCc2nc(C#N)c(N3CCN(C)CC3)o2)cc1 | 2% | -9%
COc1ccc(NC(=O)CNC(=O)Cn2ccc3ccccc3c2=O)cc1OC | -18% | -7%
COc1ccc(CN(C)C(=O)c2nn(C)c(=O)c3ccccc23)cc1F | 11% | 2%
COc1ccc(/C=C/c2nc3c(ccc4ccccc43)s2)c(OC)c1OC | 0% | 16%

Overlap with the part before: 2 entries; new compounds follow.
SMILES | 2A firefly | StopGo RLuc
COc1ccc(CN(C)C(=O)c2nn(C)c(=O)c3ccccc23)cc1F | 11% | 2%
COc1ccc(/C=C/c2nc3c(ccc4ccccc43)s2)c(OC)c1OC | 0% | 16%
CCC1CN(S(=O)(=O)c2cc(-c3cc(C)no3)ccc2OC)c2cc(C)ccc2O1 (stereo not given) | -14% | 13%
Cc1ccccc1NC(=O)CSc1ccc(N2CCC(C(=O)N3CCCCC3)CC2)nn1 | ? | ?
COc1ccccc1N=C1NN=C(c2cc(C)n(CC3CCCO3)c2C)CS1 (stereo not given) | 40%[activator] | -8%
COc1ccc(NC(=O)c2nn(C)c(=O)c3ccccc23)cc1S(=O)(=O)N(C)C | 0% | 33%[activator]
Cc1nn(CCc2nc(-c3ccc(OC(F)F)cc3)cs2)c2[nH]c(=O)cc(C(F)(F)F)c12 | 2% | 4%
CCCCCCCCOc1ccc(C=NC(C)c2ccccc2)c(O)c1 (stereo not given) | 9% | 5%
CC(C)C/C(=N\NC(=O)C1CC1(c1ccccc1)c1ccccc1)c1ccccc1 (stereo not given) | ? | ?
COc1cccc2cc(-c3nc(-c4ccccc4)cs3)c(=O)oc12 | 44%[activator] | 9%
Cc1ccc(C(=O)NCCc2c[nH]c3ccccc23)cc1C | 195%[activator] | 27%
CCc1ccc(Nc2nc(-c3cc4cccc(OC)c4oc3=O)c(CC)s2)cc1 | 49%[activator] | -7%
CCOC(=O)COc1ccccc1/C=C(/C#N)c1nc2ccc(C)cc2[nH]1 | 104%[activator] | 13%
CCC(CO)(CO)NC(=O)c1nc(-c2ccc3cc[nH]c3c2)no1 | 0% | 8%
COc1ccc(Nc2nc(N)nc(N)c2S(=O)(=O)c2ccccc2)cc1 | -8% | 99%[activator]
O=C(NCc1coc(-c2cccs2)n1)c1ccccc1Br | 21% | 14%
Cc1cc(C)c(C)c(S(=O)(=O)N2CCN(C(=O)CCc3c(C)nn(C)c3C)CC2)c1C | -1% | 13%
Cc1[nH]c2ccccc2c1C(=O)COC(=O)c1cc2ccccc2[nH]1 | ? | ?
Cc1cc(Br)ccc1-c1ccc(C=O)o1 | 28% | ?
CCn1c(CN2CCC(C)CC2)nc2cc(NC(=O)COc3ccc(Cl)c(C)c3)ccc21 | -1% | -14%
CC(NC(=O)CCC1CCCC1)C1CCCO1 (stereo not given) | 85%[activator] | 13%
CN(Cc1ccc2ccccc2c1)C(=O)CNC(=O)c1ccc(Cl)cc1Cl | 15% | -20%
Cc1ccc(-c2nnc(Nc3cccc(O)c3)c3ccccc23)cc1S(=O)(=O)N1CCCCC1 | -18% | -5%
CCn1nnc2cc(C(=O)Nc3cccc(C)c3C)ccc21 | 103%[activator] | 29%
Cc1oc2ccc(O)c(CN3CCN(C)CC3)c2c1C(=O)Nc1ccccc1 | -16% | -4%
C1CCN(c2nc(N/N=C3\CN4CCC3CC4)nc(N3CCCCC3)n2)CC1 | 1% | -3%
CCOC(=O)N(C)CC(=O)NC1CCCCC1 | 7% | 4%
CC(NCC(C#N)CCC#N)c1ccccn1 (stereo not given) | 0% | 11%
Cn1cc(-c2cc(C(F)F)c3c(C4CC4)nn(CC(=O)O)c3n2)cn1 | 5% | -2%
CCCN(CC1CC1)c1oc(-c2ccc(F)cc2)nc1C#N | 36%[activator] | 44%[activator]
COc1cc(C2c3c(n[nH]c3C)C(=O)N2c2ccc(Br)cc2)ccc1O (stereo not given) | 17% | 55%[activator]
Cc1ccccc1C(=O)Nc1ccc2c(c1)CCCN2C(=O)c1cccs1 | 3% | ?
Cc1cccc(C(=O)Nc2nc3nc(-c4ccccc4)cc(=O)n3[nH]2)c1 | 8% | 10%
COC(=O)c1ccccc1NC(=O)c1c(C)oc2ncn(C)c(=O)c12 | -17% | -11%
Cc1sc2ncn(CC(=O)Nc3ccc(F)cc3F)c(=O)c2c1S(=O)(=O)N1CCC(C)CC1 | -11% | -7%
COc1ccc(-c2c(C)nn3c(NC4CCCC4)cc(C)nc23)cc1OC | ? | ?
CCCNC(=O)c1ccc2c(c1)sc1nc(-c3ccc(C)cc3)cn12 | 33%[activator] | -12%
O=C(NCCCO)c1nc(Cc2c[nH]c3ccccc23)no1 | -12% | -16%
CN(C)S(=O)(=O)c1cccc(C(=O)OCC(=O)Nc2cc(C(F)(F)F)cc(C(F)(F)F)c2)c1 | 110%[activator] | -6%
COc1ccc(OC)c(NC(=O)CSc2cn(CC(=O)N3CCOCC3)c3ccccc23)c1 | -16% | -9%
CCC(C)N(CC(=O)Nc1cccc(C)c1C)C(=O)CN1CCCC(C(F)(F)F)C1 (stereo not given) | 4% | 17%
COCCNC(=O)c1cc(-c2ccc(C)cc2)nc2ccccc12 | 91%[activator] | 20%
CC(C)NC(=O)CSc1nnc(-c2cccnc2)o1 | -6% | -14%
COc1ccc(NC(=O)CN(C)C(=O)c2nn(C)c(=O)c3ccccc23)cc1 | 14% | 2%
Cc1ccc(-n2cnnc2SCC(=O)Nc2nc3c(C)cccc3s2)cc1 | 0% | -3%
CCCCC(CC)COC(=O)C(C#N)=C(c1ccccc1)c1ccccc1 (stereo not given) | -16%[11.5 µM] | -1%
COC(=O)[C@H](CC(C)C)N(Cc1cn(Cc2ccccc2)nn1)S(=O)(=O)c1ccc(F)cc1Br | ? | ?
COc1cc(C2C(C(=O)Nc3ccc(C)cc3C)=C(C)Nc3nc4ccccc4n32)cc(OC)c1OC (stereo not given) | -25% | -17%
COc1ccc(-c2nc3cc(NC(C)=O)ccc3o2)cc1Cl | 198%[activator] | 7%
Cc1cc(C)cc(-n2ccn(CC(=O)c3ccc(F)cc3)c(=O)c2=O)c1 | -2% | 13%
Cc1ccc(C)c(N2CCN(C(=O)Nc3cn(CC(C)C)c(=O)c4ccccc34)CC2)c1 | 3% | 2%
O=S(=O)(Nc1nc2ccccc2nc1NCCc1ccccc1)c1ccc(Cl)cc1 | 0% | 13%
Cc1cnc(C(=O)NC(c2ccccc2)c2ccccc2)cn1 | 5% | 13%
CC(C)(C)OC(=O)N/N=C/c1ccc(Cl)cc1Cl | 33%[activator] | 23%
CCC(C)(C)C1CCC2(CC1)NC(=S)N(CCC(C)C)N2 (stereo not given) | 50%[activator] | 19%

Source: PubChem BioAssay (National Center for Advancing Translational Sciences (NCATS))
